Screens: PubChem, several laboratories
UUG fidelity: modulators of start codon recognition fidelity in yeast. AID 602363. hit rate 0.13% among 350,000. S. cerevisiae UUG-firefly luciferase reporter, luminescence/redox ratio. activity score, % at 18.7 µM;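 active means replicate mean at a twofold rise or more, about +100% in these data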;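 further: firefly luciferase made from a UUG start codon reports start codon fidelity; reporter light over untreated wells divided by growth signal over untreated wells; some hits fall short of that in this replicate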
PABP polyA inh: blocks human PABP binding to poly(A) RNA; P11940; fluorescence polarization; inhibition, % at 35 µM; hit rate 1% among 290,000; AID 2014;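 active means 50% or more with normal probe brightness, or confirmed in later tests; inconclusive means above 50% with abnormal brightness, or retests that disagree; inactive means below 50% or failed in later tests; about a fifth of its hits are not listed in these tables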;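 further: calls also rest on retests at 20 µM and on dose response follow-up; controls were probe without protein and protein plus probe with vehicle; some compounds called inactive have numbers as strong as hits; many hits fall short of the cut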
eIF4H inh: inhibitors of RNA binding by human eIF4H; Q15056; inhibition, % at 35 µM; AID 2012; eIF4H fluorescence polarization binding assay; hit rate 0.94% among 290,000;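 active means 50% or more with normal probe brightness, or confirmed in later tests; inconclusive means above 50% with abnormal brightness, or retests that disagree; inactive means below 50% or failed in later tests; about a fifth of its hits are not listed in these tables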;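 further: calls also rest on retests at 20 µM and on dose response follow-up; 0% = protein and probe with vehicle and 100% = probe without protein; strong numbers were not always called active; many hits fall short of the cut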
CSC inhib: cancer stem cell inhibition; cancer stem cell-like cells viability, luminescence; inhibition, % at 7.5 µM; hit rate 1.1% among 300,000; AID 2717;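 active means mean at 75% or more and at least half the replicates too; inconclusive means mean and replicates disagree; tested in HMLE shEcad cells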;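 further: 0% = median of negative and 100% = median of positive control wells; the first replicate is given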
Rce1 inhib: inhibitors of yeast Ras-converting enzyme. yeast membranes, quenched prenylated peptide cleavage fluorescence. calls only. hit rate 0.27% among 290,000. AID 2563;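 active means fall in fluorescence gain of 50% or more versus controls, with final raw signal at or below 3038400; inconclusive means same 50% fall but final raw signal above 3038400; inactive means fall in fluorescence gain under 50%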;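 further: plate controls were neutral control wells for no effect and wells lacking membranes for full effect; tested at 10 µM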
Target sequence (Q03530 whole entry, looked up): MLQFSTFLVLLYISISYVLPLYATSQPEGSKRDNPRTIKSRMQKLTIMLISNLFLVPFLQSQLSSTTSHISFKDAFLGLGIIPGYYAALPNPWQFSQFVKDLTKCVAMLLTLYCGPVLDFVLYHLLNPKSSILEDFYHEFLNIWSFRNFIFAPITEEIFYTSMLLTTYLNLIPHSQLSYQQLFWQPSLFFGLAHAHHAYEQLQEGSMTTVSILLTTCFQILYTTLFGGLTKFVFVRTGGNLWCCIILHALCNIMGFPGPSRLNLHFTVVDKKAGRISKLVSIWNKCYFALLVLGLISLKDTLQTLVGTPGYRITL
MT1-MMP act inh: inhibitors of human MT1-MMP activation; GFP/RFP ratio change, % at 20 µM; HT1080 RFP-PRO-GFP cells, GFP/RFP ratio fluorescence, overnight; percent of plate control window, DMSO zero; hit rate 0.061% among 360,000; AID 651647; P50281;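 active means GFP/RFP ratio change of at least 30% with cell ATP level not reduced by more than half and red fluorescence within 50% of control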; further: strong numbers were not always called active
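Assay system – RFP-PRO-GFP reporter HT1080 cells · Compound dosing – single dose of 20 µM compound, 1% DMSO final · Incubation – overnight compound exposure at 37 °C · Measure – GFP/RFP fluorescence ratio · Benchmarks – DMSO wells and RFP-L50D-GFP cells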
Env fusion inh: HIV envelope-mediated fusion inhibition | HeLa-JRFL Env/CEM21 cell fusion, luciferase | inhibition, % at 12.3 µM | hit rate 1.1% among 360,000;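 active means mean replicate inhibition score of at least 50 and every replicate individually at or above 50; inconclusive means only one of the two criteria met; inactive means mean below 50 and not all replicates reaching 50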;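 further: 0% = plate neutral controls and 100% = maraviroc near 300 nM; one replicate is shown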
eIF4H inh retest: recorded beside eIF4H inh, whose call it bears; inhibition, %; compound at 20 µM; confirmation average;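 mean of two retest wells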
PABP polyA inh retest: recorded beside PABP polyA inh, whose call it bears; inhibition, %; compound at 20 µM; confirmation repeats;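 mean of two retest wells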
MT1-MMP act inh RFP: further read-out of MT1-MMP act inh, marked with its call; RFP signal change, %; measured here: RFP expression control read;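 0 = vehicle wells; hits needed this value within 50% of zero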
The depositor's hits bear a star; i = inactive; ? = inconclusive; . = not tested or not shown; & = joins results of further samples; [ ] = dose if it differs, or a comment.

SMILES	UUG fidelity	PABP polyA inh	eIF4H inh	CSC inhib	Rce1 inhib	MT1-MMP act inh	MT1-MMP act inh RFP	Env fusion inh	others
Cc1ccccc1C(=O)Nc1ccc(C(=O)N/N=C/c2ccc(F)cc2)cc1	.	8	-12	-6	i	5	2	9
CC1CC(C)CN(C(=O)c2ccccc2Nc2ccc(SC(F)F)cc2)C1 (stereo unspecified)	2	?	?	-11	i	-10	-6	22
O=S(=O)(c1ccccc1C(F)(F)F)N1CCN(c2ncnc3sccc23)CC1	-9	.	.	6	.	-7	-28	.
CCOC(=O)c1c(N)sc(C(=O)N(CC)CC)c1C	7	-3	-8	-2	i	6	6	-1
Cn1cc(/C=N/NC(=O)c2ccc(C#N)cc2F)c2ccccc21	.	69*	4	-3	i	4	3	-3	eIF4H inh retest=4;PABP polyA inh retest=98*
Cc1ccc(C2CC(c3ccccc3)n3ncnc3N2)cc1 (stereo unspecified)	-21	1	-8	-19	i	8	0	-2
CC(NC(=O)Cn1cccc1C(=O)c1ccccc1)c1ccccc1 (stereo unspecified)	-8	11	-14	.	i	-2	-2	5
CCCCn1c(N)c(N(CCOC)C(=O)C2CC(=O)N(c3cccc(SC)c3)C2)c(=O)[nH]c1=O (stereo unspecified)	.	.	.	6	i	-2	2	-2
C[C@H](CO)N1C[C@H](C)[C@@H](CN(C)S(=O)(=O)c2cccs2)Oc2c(NC(=O)Nc3ccccc3)cccc2C1=O	0&1	.	.	0	.	-5	0	3[16.7 µM]
CC(C)CNC(=O)COc1ncnc2ccccc12	.	8	1	-3	i	-2	3	.
COc1ccc(CNC(=O)c2cccc(NC3=NC4CS(=O)(=O)CC4S3)c2)cc1 (stereo unspecified)	1	-13	-10	-10	i	-1	6	-11
CC1(C)CC(=O)C2=C(C1)OC(N)=C(C#N)C2c1ccc2c(c1)OCO2 (stereo unspecified)	-1	-2	-6	-3	i	-2	-2	0
CC(OC(=O)c1cc(=O)[nH]c2ccccc12)c1ccccc1 (stereo unspecified)	-10	0	-10	-8	i	6	-1	.
O=C(N/C(=C\c1ccc2c(c1)OCO2)C(=O)N1CCOCC1)c1cccs1	-14	-4	-17	-4	i	3	0	-14
CCCn1cc(S(=O)(=O)c2ccccc2)c(=O)c2cc(F)c(N3CCN(C)CC3)cc21	-10	-8	-1	7	i	1	0	-1

Sorted by SMILES length (ascending): 3 of the compounds above.
SMILES	UUG fidelity	PABP polyA inh	eIF4H inh	CSC inhib	Rce1 inhib	MT1-MMP act inh	MT1-MMP act inh RFP	Env fusion inh	others
Cc1ccccc1C(=O)Nc1ccc(C(=O)N/N=C/c2ccc(F)cc2)cc1	.	8	-12	-6	i	5	2	9
CC1(C)CC(=O)C2=C(C1)OC(N)=C(C#N)C2c1ccc2c(c1)OCO2 (stereo unspecified)	-1	-2	-6	-3	i	-2	-2	0
CCCn1cc(S(=O)(=O)c2ccccc2)c(=O)c2cc(F)c(N3CCN(C)CC3)cc21	-10	-8	-1	7	i	1	0	-1

Returning to the listing, repeating the 2 entries before the break.
SMILES	UUG fidelity	PABP polyA inh	eIF4H inh	CSC inhib	Rce1 inhib	MT1-MMP act inh	MT1-MMP act inh RFP	Env fusion inh	others
O=C(N/C(=C\c1ccc2c(c1)OCO2)C(=O)N1CCOCC1)c1cccs1	-14	-4	-17	-4	i	3	0	-14
CCCn1cc(S(=O)(=O)c2ccccc2)c(=O)c2cc(F)c(N3CCN(C)CC3)cc21	-10	-8	-1	7	i	1	0	-1
COc1ccc2[nH]c(C)c(CCN(Cc3cccs3)C(=S)Nc3ccccc3)c2c1	-15	7	?	-12	i	-63	-9	13
COC(=O)C1=C(COc2ccccc2)NC(=O)NC1c1ccc(Cl)cc1 (stereo unspecified)	.	.	.	-5	i	.	.	12
CC(=O)C1=C(C)N=c2s/c(=C/c3ccc4c(c3)OCO4)c(=O)n2C1c1ccc(N(C)C)cc1 (stereo unspecified)	-1	.	.	.	.	-41	15	-5
COc1ccccc1C(=O)Nc1cc2ccccc2oc1=O	-4	2	2	-1	i	-2	2	.
O=C1c2ccccc2S(=O)(=O)N1Cc1c(F)cccc1Cl	-11	6	-2	-13	i	-1	1	-2
CCn1c(=O)c(C(=O)CN2CCN(S(=O)(=O)c3cc(C)ccc3C)CC2)c(N)n(Cc2ccccc2)c1=O	.	8	-2	7	i	2	-4	10
CC1CCc2c(nc3ncnn3c2N2CCN(c3ccccc3)CC2)C1 (stereo unspecified)	-13	-2	-6	-6	i	3	-4	1
O=C(CNC(=O)c1sc2ccccc2c1Cl)NCc1cccnc1	-17	2	3	9	i	-1	-1	-9
Cc1cccc(-n2cnc3cc(C(=O)N4CCCCC4)ccc32)c1	-13	-3	0	-4	i	-4	-6	-12
CC(C)CN1C(=O)C(=O)N(CC(=O)NCc2ccc3c(c2)OCO3)C1=O	-6	0	7	.	i	0	3	.
CCCN1CCN(CCCNC(=O)C2CCN(c3nnc(-n4c(C)ccc4C)s3)CC2)CC1	-11	-14	-3	-7	i	-5	-1	-20
Cc1ccc(-n2c(=O)c3c(c4cc(C)ccc4n3C)n(CC(=O)NCC3CCCO3)c2=O)cc1 (stereo unspecified)	-15	.	.	.	.	-3	5	7
CCCN(CC(=O)Nc1ccccc1C)C(=O)C1CC(=O)N(c2cccc(C)c2C)C1 (stereo unspecified)	.	.	.	-5	i	4	1	0
OCCNc1ncnc2c1sc1nc(N3CCOCC3)c3c(c12)CCC3	-8	-14	-11	-7	i	12	-5	1
O=C(NC(=S)NC1CCSC1=O)c1cccc([N+](=O)[O-])c1 (stereo unspecified)	-33	7	-6	-5	i	-9	-1	-6
Cc1nn(-c2ccc(F)cc2)c(C)c1CN1CCN(CCc2ccccc2)C(CCO)C1 (stereo unspecified)	.	3	4	14	i	4	4	-18
O=C(C1CCCC1)N1CCC(CC2CC(c3cccc(Br)c3)=NO2)(C(=O)NCC2CCCCC2)CC1 (stereo unspecified)	-12	1	-14	-29	i	-4	-4	-1
CCOC(=O)CCNC(=O)Nc1ccc2nc(C)n(Cc3cccc(Cl)c3)c(=O)c2c1	-7	5	-4	-19	i	7	-5	.
NC(=O)c1c(NC(=S)Nc2ccc(F)cc2)sc2c1CCCC2	-13	13	0	2	i	-1	3	-20
Fc1ccccc1NC(=S)NNc1ncc(C(F)(F)F)cc1Cl	-23	5	15	.	i	-4	-14	?
CN(C)c1ccc(S(=O)(=O)N2CCCCC2)cc1NC(=O)C1CSC2(C)CCC(=O)N12 (stereo unspecified)	-15	.	.	-11	.	1	3	.
O=S(=O)(c1cccs1)N1CN(Cc2ccco2)c2nc3ccccc3nc21	-14	?	?	29	i	-16	9	-24
COc1cccc(N2CCN(C(=O)c3cc4c(s3)CCCCC4)CC2)c1	-22	.	.	11	.	6	-1	.
Cc1[nH]c2ccccc2c1C(=O)COC(=O)CCS(=O)(=O)c1ccccc1Cl	.	5	-12	0	i	-6	-4	-169
COc1ccc(NC(=O)Nc2nnc(N3CCC(C)CC3)s2)cc1OC	-17	-6	0	-1	i	2	3	-4
COc1cc(OC)c(OC)cc1/C=N/n1c(-c2n[nH]c3c2CCC3)n[nH]c1=S	-9	7	-12	7	i	5	0	18
COc1ccc(C2C(C(C)=O)=C(O)C(=O)N2c2ccc(O)cc2)cc1 (stereo unspecified)	-12	6	5	-15	i	4	2	-6
COc1cccc(CN(Cc2ccco2)S(=O)(=O)c2ccc(S(=O)(=O)NCc3ccccc3)cc2)c1OC	-11	-4	-5	2	i	-13	-18	?
O=C(C[C@H]1C/C=C\C[C@@H](Cc2ccc(F)cc2)C(=O)O[C@@H](c2ccccc2)CNC1=O)NCCO	-9	.	.	-11	.	-1	-3	5
Cc1ccc(CNC(=O)c2ccc[nH]2)cc1	.	3	-5	1	i	2	8	-1
COc1ccc(Cc2nc(-c3cccc(C)c3)no2)cc1	-4	-11	-2	2	i	2	-1	.
COc1ccc(C(C(=O)NC2CCCC2)N(Cc2cccnc2)C(=O)Cc2cccs2)c(OC)c1 (stereo unspecified)	-6	-4	0	.	i	-4	-2	-4
Cc1no[n+]([O-])c1COc1ccc(/C=C(\C#N)C(N)=O)cc1	.	?	-5	-15	i	-1	0	-103
Cc1c(OCC(=O)NCCCN2CCOCC2)ccc2c3c(c(=O)oc12)CCC3	9	1	-2	-2	i	-2	-1	-2
N=C1/C(=C\c2ccc(OC(=O)c3ccccc3Cl)cc2)C(=O)N=C2SC(N3CCOCC3)=NN12	-5	10	36	-3	i	-2	5	-11
O=S(=O)(NN1CCOCC1)c1ccc(Br)s1	-11	12	-4	-5	i	3	4	21
COc1ccc(Oc2ccc(N/C=C3/CCCC3=O)cc2)cc1	-8	6	-11	-15	i	-1	-9	13
Cc1cccc(-n2nnnc2SCC(=O)N(CC(C)C)c2c(N)n(CC(C)C)c(=O)[nH]c2=O)c1	.	-10	-4	-3	i	-9	-9	-5
COc1ccc(-n2c(SCC(=O)Nc3cc(C)on3)nc3ccccc3c2=O)cc1Cl	-9	4	6	-2	i	4	5	12
Cc1ccc(CSc2nn3c(=O)c(C)nnc3s2)cc1	-3	0	-6	4	i	1	10	24
NC(=O)NC(CC(=O)NCCc1ccccn1)c1ccccc1Cl (stereo unspecified)	-5	4	-2	31	i	-5	2	-11
O=C(COC(=O)c1nc(Cl)ccc1Cl)c1ccc(Cl)s1	.	3	18	4	.	-1	1	-24
Cc1ccc(C(C(=O)NC2CCCCC2)N(C(=O)Cc2c[nH]c3ccccc23)c2ccccc2)o1 (stereo unspecified)	12	7	4	-10	i	0	-2	112*
O=[n+]1cc(-c2ccc(Cl)cc2)n([O-])c2c1CCC2	.	4	-13	-3	i	2	2	-11
CCC(NC(=S)NC1CCCCC1)c1ccc(C(C)C)cc1 (stereo unspecified)	-25	4	12	12	i	0	-11	.
CCCC1(c2ccccc2)NC(=O)N(CC(=O)Nc2sc(-c3ccccc3)cc2C(=O)OCC)C1=O (stereo unspecified)	-13	0	-4	25	i	0	-3	-56
COc1ccc(Br)cc1S(=O)(=O)NCCc1cccs1	.	.	.	-11	.	3	2	15
Cc1ccc2nc3c(c(Nc4ccc(O)cc4)c2c1)CCC3	-17	-16	-18	12	i	4	-3	-16
CN(Cc1cccc2cnccc12)C(=O)c1cc(COc2ccc(F)cc2F)on1	-8	-4	-3	.	i	-6	-29	21
CCN(CC)S(=O)(=O)c1cccc(C(=O)Oc2cccc(NC(=O)c3cccs3)c2)c1	14	31	-4	-13	i	3	1	24
CC(=O)N(Cc1cccnc1)Cc1cc2ccc(C)cc2[nH]c1=O	-13	9	11	6	i	-1	-6	-79
Cc1cc(Br)ccc1NC(=O)CN(C)C(=O)CSCc1ccccc1	-10	.	.	-4	i	10	3	17
COc1cccc(/C=N/n2c(-c3ccco3)nc3ccccc3c2=O)c1	.	-4	73	13	i	1	-2	.	eIF4H inh retest=3;PABP polyA inh retest=20
O=C(c1ccc(F)cc1)N1CCN(S(=O)(=O)c2ccc3c(c2)OCCO3)CC1	-11	.	.	.	.	2	0	4
Cn1cc(CCCC(=O)NCc2ccc(F)cc2)c2ccccc21	-5	10	4	16	i	4	1	-26
COc1ccc(C2CC(C(F)(F)F)n3ncc(C(=O)Nc4cccc(O)c4)c3N2)cc1OC (stereo unspecified)	14	4	-5	-6	i	4	-3	-39
COc1cccc(NC(=S)NC2CC3CCCC(C2)N3CC(C)C)c1 (stereo unspecified)	-25	3	4	-10	i	2	0	1
CN(CC(=O)Nc1cccnc1)S(=O)(=O)c1cc(Cl)ccc1Cl	-10	-10	-1	.	i	1	-2	.
